# Ba CapD inh – Bacillus anthracis CapD inhibitors, primary screen, biochemical, fluorescence intensity | CapD gamma-glutamyltranspeptidase (Bacillus anthracis Ames Ancestor) | purified CapD enzyme, fluorescence intensity read-out; active compounds read low; some hits fall short of the stated cut | z-score (no concentration beside the values) | 140,000 tested, 0.23% active | AID 492967, 2010;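 active = z-score under -4 in either of two replicates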;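 note: stock transfer was 100 nL into about 40 µL; score is relative to mean and spread of the plate; one replicate is shown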
# AID504770 – growth inhibition of E. coli YBA685, primary screen, V. cholerae RctB inhibitors; E. coli YBA685 rctB-dependent plasmid, OD600 growth, 3 h; active compounds read low; z-score (concentration not given with the values); 130,000 tested, 0.27% active;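 active = z-score under -2 on both plates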;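 note: wells of about 30 µL received 100 nL stock; score is relative to mean and SD of the test wells; the first replicate is given; strong numbers were not always called active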
# * hit, by the source's call; x = no result given; & = joins results of further samples.
SMILES,Ba CapD inh,AID504770
CCOC(=O)CSc1nnc2n(Cc3ccccc3)c(=O)c3c(n12)-c1ccccc1CC31CCCCC1,-0.3,x
CC(CN1CCOCC1)OC(=O)c1ccco1 (centres undefined),-0.645,-1.15
COC(=O)c1c(C)n(S(C)(=O)=O)c2ccc(NS(C)(=O)=O)cc12,x,1.1
COc1cccc(OCCNC(=O)c2cc(C(F)(F)F)cc(C(F)(F)F)c2)c1,-0.205,-0.65
O=C(OCC(O)CO)c1ccccc1Nc1ccnc2cc(Cl)ccc12 (centres undefined),0.035&-0.135,0.9
Cc1cc(N)ccc1-n1cnnn1,-0.105,0.85
Cc1c(C(=O)N2CCc3ccccc32)oc2c1C(=O)CC(C)(C)C2,0.535,-1.3
CCC(=O)NC1(Cc2ccc(O)cc2)CCCCC1,-0.355,-0.45
O=C(NCCc1ccncc1)NC(=O)c1c(F)cccc1F,-0.02,x
COC(=O)c1[nH]nc2c1C(=O)N(c1ccc(F)cc1)C2=O,0.39,-0.35
Cc1ccc(-c2csc(N)n2)c(C)c1,0.645,x
COc1ccc(C2/C(=C(\O)c3ccc(F)cc3)C(=O)C(=O)N2c2nnc(C)s2)cc1OC (centres undefined),-0.87,1.8
C=CCOc1ccc(/C=C2/SC(N3CCN(c4ccccc4C)CC3)=NC2=O)cc1,-0.075,x
O=C(OCCn1nc(-c2ccccc2)cc1-c1ccccc1)N1CCN(C(=O)c2ccc(F)cc2Cl)CC1,0.335,x
CN1CCN(C(=O)c2ccc(C(C)(C)C)cc2)CC1,x,-0.6
CC(C)Cn1c(SCC(=O)c2ccc(Cl)s2)nnc1-c1ccco1,x,1.55
Cc1ccc(NC(=O)Cc2c(O)c3ccccc3[nH]c2=O)c(C)c1,1.81,0.3
O=C(CSc1ccccn1)N1CCC(c2ccccc2)=N1,x,-0.05
Cc1cc(-c2ccc(C)c(S(=O)(=O)N3CCc4ccccc43)c2)on1,-0.885,-0.1
COc1cccc(-c2ncnn2-c2cccc(Cl)c2C)c1,4.47,0.2
Cc1ccc(C)n1C(Cc1c[nH]c2ccccc12)C(=O)O (centres undefined),x,0.05
O=C(CCC(=O)Nc1ccc(Br)cn1)NNC(=O)c1nccc2ccccc12,0.295,x
CCOc1ccc(-c2nonc2NC(=O)c2oc3cc(C)c(Cl)cc3c2C)cc1OCC,0.15,-0.6
C=CCn1c(SCC(=O)c2ccc(Cl)s2)nnc1-c1ccncc1,x,2
O=C(C1CCN(c2nc3ccc(Br)cc3s2)CC1)N1CCC2(CC1)OCCO2,0.265,-0.3
CC(=O)Nc1cc2ccc(OC(C)=O)cc2oc1=O,0.785,1.7
COc1ccc(C)cc1NC(=O)CN1CCCC1c1ccc2c(c1)OCCCO2 (centres undefined),x,-0.45
CC1(C)CC2(CC(C)(C)N1)OC(=O)N(CCCCCCN1C(=O)OC3(CC(C)(C)NC(C)(C)C3)C1(C)O)C2(C)O (centres undefined),0.34,x
Cc1ccc(C(O)CN=Cc2c(O)ccc3ccccc23)cn1 (centres undefined),-0.94,2.25
Cc1ncoc1C(=O)NCc1ccc(Cl)cc1,0.32,-1.1
Cc1csc(OCC(=O)Nc2ccc(C)c(C)c2)n1,x,0.15
CNC(=O)C1CCCN(c2nnc(-n3c(C)ccc3C)s2)C1 (centres undefined),0.145,-0.1
CC(C)(C)c1ccc(-c2nc3cc(Cl)ccc3c(=O)o2)cc1,0.29,x
N#Cc1c(C(F)(F)F)cc(-c2ccccc2Cl)nc1N1CCOCC1,0.475,x
Cc1ccc(Nc2cc(=O)[nH]n2C)cc1Cl,0.715,0.85
CN(C(=O)c1ccccc1)c1ccc(OCC(=O)NC2CCS(=O)(=O)C2)cc1 (centres undefined),0.555,-0.35
CCN(CC)CC(=O)N1N=C(c2cccs2)CC1c1ccco1 (centres undefined),x,-0.8
CCOc1ccc(NC(=S)NCC2CCCO2)cc1 (centres undefined),0.26,-0.8
COc1ccc(CCNC(=O)C2CCCN(c3nc4ccccc4o3)C2)cc1OC (centres undefined),-0.305,-1
COC(=O)c1cnc(N2CCCN(S(=O)(=O)c3cccc4nonc34)CC2)nc1C(F)(F)F,0.695,-0.5
O=C(Nc1nc(-c2ccccc2)cs1)C1COc2ccccc2O1 (centres undefined),0.635,x
OCC1CCCN(C(=S)NCc2ccccc2)C1 (centres undefined),-0.375,1.75
COc1ccc(C(=O)OCC(=O)NC2CC2)cc1,x,-0.5
Cc1c(NC(=O)C(C)OC(=O)Cc2ccccc2)c(=O)n(-c2ccccc2)n1C (centres undefined),x,0.25
CCN1CCN(CCNC(=O)c2cc(-c3ccccc3)c(N3CCOCC3)s2)CC1,-1.26,-0.65
CC1C(O)CC(c2ccccc2)N(C)C1c1ccccc1 (centres undefined),-0.245,-0.1
Cc1sc(/N=C/c2cn(Cc3ccccc3)c3ccccc23)c(C#N)c1C,-0.025,-0.05
CSc1cccc(-n2ccc(O)c(Cc3ccc(Cl)cc3Cl)c2=O)c1,0.07,x
COc1ccc2c(CN3c4ccccc4CC3C)cc(=O)oc2c1 (centres undefined),x,0.1
Cc1cc(=O)oc(C)c1C(=O)NCCC1=CCCCC1,-3.77,-1.05

# Record cards, as listed above. Screens in order: Ba CapD inh, AID504770
# Record of OCC1CCCN(C(=S)NCc2ccccc2)C1 (centres undefined) → -0.375, 1.75
# Record of COc1ccc(C(=O)OCC(=O)NC2CC2)cc1 → x, -0.5
# Record of CSc1cccc(-n2ccc(O)c(Cc3ccc(Cl)cc3Cl)c2=O)c1 → 0.07, x
# Record of COc1ccc2c(CN3c4ccccc4CC3C)cc(=O)oc2c1 (centres undefined) → x, 0.1

# (next part)
SMILES,Ba CapD inh,AID504770
CCN(CC(=O)Nc1ccc(N2CCOCC2)cc1)CC(=O)Nc1cc(C)on1,x,-0.6
COC(=O)c1ccc(C2C3=C(CC(c4ccco4)CC3=O)Nc3ccccc3N2C(=O)C2CC2)cc1 (centres undefined),10.1,-0.7
CSc1nc2ccccc2n1Cc1ccccc1F,0.055,-0.6
CCOC(=O)/C=C1\CCCCCN1,-0.63,-0.95
Cc1nn(-c2ccccc2)c(Cl)c1C1N(Cc2ccccc2)CCN1Cc1ccccc1,0.405,-0.45
COc1cccc(OCCOc2c(Cl)cc(-c3nc4sc5c(c4c(=O)[nH]3)CCCC5)cc2OC)c1,-0.08,x
O=C1N(CCc2ccccc2)c2ccccc2C12OCCCO2,-0.355,-0.85
NC(=O)c1ccccc1NC(=O)C1C2C=CC(C2)C1C(=O)O (centres undefined),21.5,-0.65
CCOc1ccc(N(CC(=O)N2CCN(c3ccccc3OC)CC2)S(=O)(=O)c2ccc(SC)cc2)cc1,0.55,x
CC1OC(O[C@H]2/C=C/C=C/C=C/C=C/C=C/C=C/C=C/[C@H](C)[C@@H](O)[C@@H](C)[C@H](C)OC(=O)C[C@H](O)C[C@H](O)CC[C@@H](O)[C@H](O)C[C@H](O)C[C@]3(O)C[C@H](O)[C@@H](C(=O)O)[C@H](C2)O3)C(O)C(N)C1O (some centres undefined),1.07,x
CCOCCn1cnc2sc(C(=O)N3CCCCCC3)c(C)c2c1=O,6.25,x
CSc1ccc(C2C(C#N)=C(N)N(c3ccc(S(N)(=O)=O)cc3)C3=C2C(=O)CCC3)cc1 (centres undefined),-0.73,x
O=C(CSc1ncc(C(F)(F)F)cc1Cl)c1ccc(O)cc1O,x,-1
Cc1cc(C)nc(SCc2ccc(-c3nnc4n3CCCCC4)cc2)n1,x,-1.05
Cc1ccccc1Nc1nc(N)nc(CSc2nc3ccccc3c(=O)n2CCCO)n1,x,0.75
Cc1ccc(Cl)cc1NC(=O)CCC(=O)NCc1ccco1,x,-1
CCn1c(C)cc(O)cc1=O,x,-0.6
CCSc1nnc(NC(=O)CSc2cn(CC)c3ccccc23)s1,0.015,-0.55
CN(C)c1ccc(CN2CCCCC2COC(=O)N2CC=C(n3c(=O)[nH]c4ccccc43)CC2)cc1 (centres undefined),-0.145,x
N#Cc1c(-c2ccccc2Cl)noc1/C=C/Nc1ccccc1Cl,-0.315,x

# Of the compounds above, four contain a CF3 group:
SMILES,Ba CapD inh,AID504770
COc1cccc(OCCNC(=O)c2cc(C(F)(F)F)cc(C(F)(F)F)c2)c1,-0.205,-0.65
N#Cc1c(C(F)(F)F)cc(-c2ccccc2Cl)nc1N1CCOCC1,0.475,x
COC(=O)c1cnc(N2CCCN(S(=O)(=O)c3cccc4nonc34)CC2)nc1C(F)(F)F,0.695,-0.5
O=C(CSc1ncc(C(F)(F)F)cc1Cl)c1ccc(O)cc1O,x,-1

# (further entries)
SMILES,Ba CapD inh,AID504770
N#CC(C#N)=CNc1nccs1,72.7,-1.1
CCCC(=Nc1ccccc1O)C1=C(O)CC(CC(C)SCC)CC1=O (centres undefined),x,0
O=C(CSCCO)N1CCc2ccccc21,x,0.3
Cc1cc2c(cc1C)NC(c1ccc(O)cc1O)C1=C(CC(C)(C)CC1=O)N2 (centres undefined),16.1,-0.2
O=S(=O)(c1ccc(N=Cc2c(O)ccc3ccccc23)cc1)N1CCCCC1,-0.675,-0.8
Nc1ncnc(N2CCCc3ccccc32)n1,-0.12,-0.65
O=C(c1ccc(F)cc1)N1CCCN(c2nc(-c3ccccc3)ns2)CC1,-1.09,0.1
CC1(C)ONC(=O)N(CCc2cccs2)C1=O,0.04,x
CCOC(=O)c1cc(C(N)=S)c(=O)[nH]c1O,x,1.55
CC1(C)CC(NC(=O)C23CC4CC(CC(C4)C2)C3)CC(C)(C)N1,-0.39,1.25

# Retrieved by compound from the list above (4):
SMILES,Ba CapD inh,AID504770
N#Cc1c(C(F)(F)F)cc(-c2ccccc2Cl)nc1N1CCOCC1,0.475,x
Cc1cc2c(cc1C)NC(c1ccc(O)cc1O)C1=C(CC(C)(C)CC1=O)N2 (centres undefined),16.1,-0.2
CC1C(O)CC(c2ccccc2)N(C)C1c1ccccc1 (centres undefined),-0.245,-0.1
CSc1nc2ccccc2n1Cc1ccccc1F,0.055,-0.6

# Next section:
SMILES,Ba CapD inh,AID504770
O=C1CSC(c2ccc3c(c2)OCO3)N1c1ccc(Br)cc1 (centres undefined),0.595,-0.65
CCOC(=O)N1CCN(C(=O)CCCCn2c(=S)[nH]c3c([nH]c4ccc(OC)cc43)c2=O)CC1,6.67,0.7
COc1ccc(-c2noc(CN(C(=O)Nc3cccc(Cl)c3)C3CCCCC3)n2)cc1OC,-0.175,1.55
O=C(CSc1nc2ccccc2n1S(=O)(=O)c1cccc([N+](=O)[O-])c1)NC1CCCCC1,0.215,x
O=C(CCCn1ccc2cc(S(=O)(=O)N3CCCC3)ccc21)NCCc1ccccc1,0.16,-0.1
CCOc1cc(/C=C2\SC(NC(C)=O)=NC2=O)c(Br)cc1OC(C)=O,-0.155,x
COc1ccccc1N1CCN(C(=O)C2c3ccccc3C(=O)N3CCC(C)CC23)CC1 (centres undefined),0.745,-1.25
O=S(=O)(NC1=NCCCCC1)c1ccc(F)cc1F,-0.545,-0.8
Cc1cc(C)c(C#N)c(SCC(O)CS(=O)Cc2ccccc2)n1 (centres undefined),x,0.2
O=C(OCC(=O)N(C1CCCCC1)C1CCCCC1)c1ccc(O)cc1,x,-0.9
CCOc1ccc(C2CC(=O)N3CN(CCO)CSC3=C2C#N)cc1 (centres undefined),-1.05,0.05
CCc1cccc(NC(=O)COc2cc(=O)n(C)c3ccccc23)c1,-0.095,1.25
N#Cc1cc(-c2cccc(C(F)(F)F)c2)cnc1Oc1ccc(Cl)cc1,1.36,x
N#CC1=C(N)SC(c2cccs2)C(C#N)=C1N (centres undefined),-5.11*,-1.45
N#Cc1ccc(N2CCN(C(=O)c3cccc(C(F)(F)F)c3)CC2)cc1,0.25,x
CCNc1ccc(C(=O)OCC)cc1NC(=O)c1cccc(N(C)C)c1,x,-0.3
NC(C(=O)O)C(c1ccccc1)C(F)(F)F (centres undefined),x,0.65
Nc1c2c(nn1-c1ccccc1)CC(=O)NC2=O,1.34,0
Cc1c(C(=O)N2CCC(C(=O)N3CCCCC3)CC2)oc2cc3sc(N(C)C)nc3cc12,7.36,1.15
CC(C)(C)NC(=O)Nc1ccc2ccccc2c1,8.5,1.35
Cc1cc(C(=O)OCC(N)=O)c(C)n1-c1ccccc1,0.31,1
COC1OC(OC)C2C3CCC(CC3O)C12 (centres undefined),-0.4,0.15
O=C(/C=C/c1ccco1)Nc1ccc(S(=O)(=O)N2CCCCCC2)cc1,-0.125,-0.2
c1ccc(Nc2ccc(-c3ccccc3)nn2)cc1,-0.01,-0.4
c1csc(-c2nnc(Sc3nc(CN4CCCCC4)nc4sc5c(c34)CCCC5)o2)c1,x,-0.7
CN1CCN(C(CNC(=O)NC2CCCCC2)c2ccc(F)cc2)CC1 (centres undefined),x,-0.6
CC1CC2(CC(C)(c3csc(Nc4ccccc4)n3)OC2=O)C(=O)O1 (centres undefined),-0.515,x
CCN(CC)c1nc(C)nc2sc(C(=O)O)c(C)c12,-0.65,x
CCN(CC)S(=O)(=O)c1ccc(NC(=O)Cn2ncc3c(=O)oc4ccc(C)cc4c32)cc1,-0.405,0
O=C(O)COc1ccc(NS(=O)(=O)c2cccc3nsnc23)cc1,-1.23,-0.4
O=c1[nH]c2cc3nc(C(F)(F)C(F)(F)F)[nH]c3cc2[nH]1,0.705,0.5
CCN(CC)c1ccc(NC(=O)c2ccccc2F)cc1,x,-0.95
COCCOC(=O)C1=C(C)NC2=C(C(=O)CC(c3ccccc3)C2)C1c1ccc(Br)cc1 (centres undefined),13.8,x
N=C(N)SCc1ccccc1F,-0.955,x
NC(=O)COc1ncnc2scc(-c3ccccc3)c12,x,-0.05
O=C(Nc1ccc2c(c1)nc1n2CCCCC1)c1cc2ccccc2o1,x,-0.2
O=C1C=C(Nc2cccc3ccccc23)CCC1,-1.34,-0.75

# Looked up above.
# In Ba CapD inh, COCCOC(=O)C1=C(C)NC2=C(C(=O)CC(c3ccccc3)C2)C1c1ccc(Br)cc1 (centres undefined) reads 13.8
# In AID504770, O=C(Nc1ccc2c(c1)nc1n2CCCCC1)c1cc2ccccc2o1 reads -0.2
# In AID504770, O=c1[nH]c2cc3nc(C(F)(F)C(F)(F)F)[nH]c3cc2[nH]1 reads 0.5

# Compound activity (PubChem)
